High-throughput results deposited in PubChem by Broad Institute.
Vaccinia stage – Vaccinia orthopox stage-specific inhibition. Vaccinia-infected cells, mCherry/Venus stage reporter fluorescence; hits give low values; some inactives read as strong as hits. activity change (mCherry), % (concentration not given with the values). 89,000 compounds, 0.01% hits;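 active = mCherry past -33% and 40 or more points under the early reporter, replicates agreeing; inconclusive = past -33% without that gap or agreement; tested in A549 cells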;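 also: scaled between vehicle wells and reference inhibitor wells; 23 nL library stock went into each well; one replicate is shown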
Vaccinia stage Venus – further read-out of Vaccinia stage, marked with its call; activity change (Venus), %; measured here: Venus reporter, other viral stage;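 negative = less Venus signal; first of two replicates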
Numbers without * were called inactive; ? = inconclusive; . = no result given. An excerpt, so the mix of outcomes need not match the whole.

mol | Vaccinia stage | Vaccinia stage Venus
O=C1O[C@@H](c2ccccc2)[C@@H](c2ccccc2)N2[C@@H](c3ccccc3OCCO)[C@]3(C(=O)Nc4ccc(C#CC5=CCCCC5)cc43)[C@@H](C(=O)N3CCCCCCC3)[C@H]12 | -21 | -22
COc1cccc(S(=O)(=O)Nc2ccc3c(c2)[C@@H]2C[C@H](CC(=O)NCCc4ccccc4)O[C@@H](CO)[C@@H]2O3)c1 | -13 | -16
O=C1CN(S(=O)(=O)Cc2ccccc2)C[C@H]2[C@@H](c3ccc(C#Cc4cccc(F)c4)cc3)[C@@H](CO)N12 | -31 | -25
O=C(C[C@H]1C=C[C@H](NC(=O)C2CCC2)[C@@H](CO)O1)Nc1nccs1 | -4 | -5
O=C(Nc1cccc(Cl)c1)N[C@@H]1CC[C@H](CCNC(=O)C2CCCCC2)O[C@H]1CO | -8 | -3
C[C@@H]1CN([C@@H](C)CO)C(=O)c2cccc(NC(=O)Nc3ccc4c(c3)OCO4)c2O[C@H]1CN(C)Cc1ccc(Cl)c(Cl)c1 | ? | .
CN(C)CC#Cc1cccc(-c2nc(C(=O)N3CCN(Cc4ccccc4)CC3)cc3c2[C@H](CCO)N(S(=O)C(C)(C)C)C3)c1 (stereo partly specified) | 2 | 9
COC(=O)[C@@H]1[C@@H](CO)[C@@H]2Cn3c(ccc(-c4ccccc4)c3=O)[C@H]1N2CC1CC1 | 1 | -3
C[C@@H]1CCCCO[C@@H](CN(C)C(=O)Cc2ccccc2)[C@H](C)CN([C@H](C)CO)C(=O)c2cc(NS(C)(=O)=O)ccc2O1 | -5 | 5
C/C=C/c1ccc([C@H]2[C@@H](CO)N(S(=O)(=O)c3cccc(F)c3)[C@H]2C#N)cc1 | -9 | 1
C[C@H](CO)N1C[C@H](C)[C@H](CN(C)C(=O)CC2CC2)Oc2cc(-c3ccncc3)ccc2S1(=O)=O | 4 | 14
COc1ccc(-c2cnc3c(c2)C(=O)N([C@@H](C)CO)C[C@H](C)[C@H](CN(C)C(=O)Cc2cccnc2)O3)cc1 | 15 | 11
COCC(=O)Nc1ccc2c(c1)[C@@H]1C[C@H](CC(=O)NC3CCCCC3)O[C@@H](CO)[C@@H]1O2 | 8 | 4
CN(C)Cc1cn(CC[C@H]2CC[C@H](NS(=O)(=O)c3ccccc3)[C@@H](CO)O2)nn1 | 17 | 10
CN(C)C(=O)c1ccc(-c2ccc3c(c2)[C@H]2[C@H](CCN2C(=O)c2cnccn2)[C@H](CO)N3)cc1 | 0 | -6

6 successive records out of the list so far, quoted:
mol | Vaccinia stage | Vaccinia stage Venus
O=C1O[C@@H](c2ccccc2)[C@@H](c2ccccc2)N2[C@@H](c3ccccc3OCCO)[C@]3(C(=O)Nc4ccc(C#CC5=CCCCC5)cc43)[C@@H](C(=O)N3CCCCCCC3)[C@H]12 | -21 | -22
COc1cccc(S(=O)(=O)Nc2ccc3c(c2)[C@@H]2C[C@H](CC(=O)NCCc4ccccc4)O[C@@H](CO)[C@@H]2O3)c1 | -13 | -16
O=C1CN(S(=O)(=O)Cc2ccccc2)C[C@H]2[C@@H](c3ccc(C#Cc4cccc(F)c4)cc3)[C@@H](CO)N12 | -31 | -25
O=C(C[C@H]1C=C[C@H](NC(=O)C2CCC2)[C@@H](CO)O1)Nc1nccs1 | -4 | -5
O=C(Nc1cccc(Cl)c1)N[C@@H]1CC[C@H](CCNC(=O)C2CCCCC2)O[C@H]1CO | -8 | -3
C[C@@H]1CN([C@@H](C)CO)C(=O)c2cccc(NC(=O)Nc3ccc4c(c3)OCO4)c2O[C@H]1CN(C)Cc1ccc(Cl)c(Cl)c1 | ? | .

Going on with the list:
mol | Vaccinia stage | Vaccinia stage Venus
C[C@@H]1CN([C@@H](C)CO)C(=O)c2cc(NS(=O)(=O)c3ccc(F)cc3)ccc2O[C@@H](C)CCCCO[C@@H]1CN(C)C(=O)Nc1cccc2ccccc12 | 36 | 20
C[C@@H]1CN([C@H](C)CO)C(=O)c2cccc(N(C)C)c2O[C@@H]1CN(C)Cc1ccc(C(=O)O)cc1 | 1 | 6
COc1ccc(CN(C)C[C@H]2Oc3ccc(NS(=O)(=O)c4ccc(C)cc4)cc3C(=O)N([C@H](C)CO)C[C@H]2C)cc1 | -24 | -12
COc1ccc(CN(C)C[C@H]2Oc3ccc(NS(=O)(=O)c4ccc(OC)cc4)cc3CC(=O)N([C@H](C)CO)C[C@H]2C)cc1 | -14 | -13
COc1ccc(NC(=O)N(C)C[C@H]2OCCCC[C@@H](C)Oc3ccc(NC(=O)Nc4ccc5c(c4)OCO5)cc3C(=O)N([C@@H](C)CO)C[C@H]2C)cc1 | 18 | 9
CCCNC(=O)C[C@H]1CC[C@H]2[C@@H](COc3ccc(NC(=O)Nc4ccccc4F)cc3C(=O)N2C)O1 | 16 | 12
O=C(C1=C[C@@H](c2csc3ccccc23)C[C@@H](OCc2ccc(CO)cc2)O1)N1CCN(Cc2ccc3c(c2)OCO3)CC1 | ? | -24
CCS(=O)(=O)N1CC2(CN(Cc3ccccc3F)[C@H](CO)c3c2c2ccc(OC)cc2n3C)C1 | 5 | 1
CCC(=O)N1CC(=O)N2[C@H](CO)[C@H](c3ccc(C#Cc4cccc(OC)c4)cc3)[C@@H]2C1 | -5 | -6
Cc1noc(C)c1NC(=O)Nc1ccc2c(c1)C(=O)N([C@@H](C)CO)C[C@@H](C)[C@@H](CN(C)S(=O)(=O)c1ccccc1)OCCCC[C@H](C)O2 | 13 | 7
CO[C@@H]1CN(C)C(=O)c2ccc(NC(=O)C3CCC3)cc2OC[C@H](C)N(Cc2cccnc2)C[C@@H]1C | -3 | 0
COc1cccc(S(=O)(=O)N[C@@H]2C=C[C@H](CC(=O)NCc3ccccc3)O[C@@H]2CO)c1 | -2 | 5
O=C(CC(F)(F)F)N1C[C@@H]2[C@H](c3ccccc31)[C@@H](CO)N2C(=O)Cc1cccnc1 | 10 | 9
CC(C)CC#Cc1ccc2c(c1)O[C@H](CN(C)S(=O)(=O)c1cccc(F)c1)[C@@H](C)CN([C@@H](C)CO)S2(=O)=O | -8 | -5
Cc1noc(C)c1S(=O)(=O)Nc1cccc2c1O[C@H](CN(C)S(=O)(=O)c1cn(C)cn1)[C@H](C)CN([C@@H](C)CO)C2=O | 5 | 7
CN1C(=O)c2cc(NC(=O)c3cnccn3)ccc2OC[C@@H]2O[C@@H](CC(=O)O)CC[C@@H]21 | 5 | 6
Cc1cccc(-c2ccc([C@H]3[C@H](CO)N4CCCCN(CCC(F)(F)F)C[C@@H]34)cc2)c1 | ? | .
CO[C@H]1CN(C)C(=O)c2ccc(NC(=O)Nc3ccccc3)cc2OC[C@@H](C)N(C(C)=O)C[C@@H]1C | 3 | 3
C[C@@H]1CCCCO[C@H](CN(C)S(C)(=O)=O)[C@@H](C)CN([C@H](C)CO)C(=O)c2cc(N(C)C)ccc2O1 | 9 | 3
COc1ccc2c3c([nH]c2c1)[C@H](CO)N(C(=O)Nc1ccccc1F)CC31CCN(C(C)=O)CC1 | 27 | 13
COc1ccc2c3c([nH]c2c1)[C@H](CO)N(S(C)(=O)=O)CC31CN(CC2CC2)C1 | 11 | 4
C[C@@H]1CN([C@@H](C)CO)C(=O)c2cc(-c3cncnc3)cnc2O[C@H]1CN(C)Cc1ccncc1 | 16 | 8
C[C@H]1CN([C@@H](C)CO)C(=O)Cc2cc(NC(=O)Nc3cccc4ccccc34)ccc2O[C@H]1CN(C)Cc1ccc2c(c1)OCO2 | 0 | -2
C[C@@H]1CN([C@@H](C)CO)C(=O)c2cc(NC(=O)Nc3ccc(C(F)(F)F)cc3)ccc2O[C@@H]1CN(C)C(=O)NC1CCCCC1 | -33 | -15
Cc1ccc(S(=O)(=O)N(C)C[C@@H]2Oc3c(NC(=O)c4cc(C)nn4C)cccc3C(=O)N([C@@H](C)CO)C[C@H]2C)cc1 | 11 | 4
C[C@H]1CN([C@@H](C)CO)C(=O)Cc2cc(NC(=O)CCCCCC(=O)Nc3ccccc3N)ccc2O[C@H]1CN(C)Cc1ccc(Oc2ccccc2)cc1 | ? | .
C[C@@H]1CCCCO[C@H](CN(C)C(=O)Nc2ccc(F)cc2)[C@H](C)CN([C@@H](C)CO)C(=O)c2cc(NC(=O)CCCN(C)C)ccc2O1 | 18 | 15
COCC(=O)Nc1ccc2c(c1)OC[C@@H](C)N(Cc1cc(F)ccc1F)C[C@@H](C)[C@H](OC)CN(C)C2=O | -11 | -8
C[C@@H]1CN([C@@H](C)CO)C(=O)c2cc(NC(=O)C3CCCCC3)ccc2O[C@@H]1CN(C)Cc1ccncc1 | 12 | 6
CC(=O)N1[C@H](CO)[C@H](c2ccc(C3=CCCC3)cc2)[C@H]1CNC(=O)CC1CC1 | 20 | 14
COc1ccc(NC(=O)N(C)C[C@@H]2OCCCC[C@@H](C)Oc3ccc(NS(=O)(=O)c4ccc(F)cc4)cc3C(=O)N([C@H](C)CO)C[C@H]2C)cc1 | -12 | -14
C[C@H](CO)N1C[C@H](C)[C@H](CN(C)C(=O)c2ccccc2)OCCCC[C@H](C)Oc2ccc(NC(=O)Nc3ccc(F)cc3)cc2C1=O | 6 | 6
O=C(C[C@@H]1C=C[C@H](NC(=O)C2CC2)[C@H](CO)O1)NC1CCC1 | 4 | 3
COCC(=O)N1CC2(C1)[C@@H](c1ccc(-c3ccc(F)cc3)cc1)[C@@H](CO)N2C(=O)C1CC1 | 2 | 5
C[C@H](CO)N1C[C@H](C)[C@@H](CN(C)Cc2cccnc2)Oc2cc(C#CCN(C)C)ccc2S1(=O)=O | 9 | 2
COC(=O)[C@H]1[C@H](CO)[C@H]2Cn3c(ccc(-c4ccc(F)cc4)c3=O)[C@H]2N1S(C)(=O)=O | 4 | 7
CCC(=O)N1CC2(CN(C(=O)NC(C)C)C2)c2c(n(C)c3cc(OC)ccc23)[C@@H]1CO | 32 | 29
O=C(C[C@@H]1CC[C@H](NC(=O)Nc2ccccc2)[C@@H](CO)O1)NCc1cccc(F)c1 | 2 | 8
C[C@@H]1CN([C@H](C)CO)S(=O)(=O)c2ccc(Br)cc2O[C@H]1CN(C)CC1CCOCC1 | -8 | -3
CO[C@H]1CN(C)C(=O)c2cc(NC(=O)Nc3ccccc3F)ccc2OC[C@@H](C)N(Cc2ccccc2C(=O)O)C[C@H]1C | 16 | 5
C[C@H](CO)N1C[C@H](C)[C@@H](CN(C)Cc2ccc(-c3ccccc3)cc2)Oc2cc(C#CC(C)(C)O)ccc2S1(=O)=O | ? | .
C[C@@H]1CN([C@@H](C)CO)S(=O)(=O)c2ccc(C3=CCCC3)cc2O[C@@H]1CN(C)C(=O)Nc1ccc2c(c1)OCO2 | ? | .
C[C@@H]1CN([C@@H](C)CO)C(=O)c2cc(NC(=O)NC3CCCCC3)ccc2O[C@@H]1CN(C)S(=O)(=O)c1ccccc1 | 8 | 3
CC(=O)N1[C@@H]2c3ccc(-c4ccc(F)cc4)c(=O)n3C[C@@H]2[C@@H](CO)[C@@H]1C(=O)NC1CCC1 | 21 | 10
O=C(C[C@@H]1C[C@H]2c3cc(NC(=O)C4CCOCC4)ccc3O[C@H]2[C@H](CO)O1)NCCc1ccccc1 | 13 | 9
Cc1ccccc1-c1cnc2c(c1)C(=O)N([C@@H](C)CO)C[C@@H](C)[C@@H](CN(C)C(=O)c1ccc(F)cc1)O2 | -3 | -6
C[C@H]1CCCCO[C@@H](CN(C)Cc2ccccc2)[C@@H](C)CN([C@@H](C)CO)C(=O)c2cc(NC(=O)Nc3cccc4ccccc34)ccc2O1 | -34 | -32
N#C[C@@H]1[C@@H](c2ccc(C3=CCCCC3)cc2)[C@@H](CO)N1S(=O)(=O)c1ccccc1 | 5 | 2
CN(C)CC(=O)N[C@@H]1CC[C@@H](CCNS(=O)(=O)c2ccccc2)O[C@@H]1CO | -1 | 0
COc1ccc(S(=O)(=O)N(C)C[C@H]2Oc3ccc(NC(=O)Nc4c(C)noc4C)cc3C(=O)N([C@H](C)CO)C[C@@H]2C)cc1 | 27 | 14
COc1ccc(-c2ccc3c(c2)O[C@@H](CN(C)C(C)=O)[C@@H](C)CN([C@H](C)CO)S3(=O)=O)cc1 | 2 | 7
C[C@H](CO)N1C[C@H](C)[C@H](CN(C)C(=O)Nc2ccc(C(F)(F)F)cc2)Oc2ccc(NC(=O)C3CC3)cc2CC1=O | 7 | -5
CN(C)C(=O)c1cccc(-c2ccc([C@H]3[C@H](CO)N4CCCCN(Cc5cccnc5)C[C@@H]34)cc2)c1 | 28 | -4
O=C(Nc1ccc2c(c1)[C@@H]1C[C@@H](CC(=O)N3CCOCC3)O[C@H](CO)[C@@H]1O2)Nc1ccccc1F | 17 | 14
Cc1cccc(CN(C)C[C@@H]2Oc3ncc(-c4cc5ccccc5o4)cc3C(=O)N([C@H](C)CO)C[C@@H]2C)c1 | ? | .
O=C(Nc1ccccc1F)N1CC(=O)N2[C@H](CO)[C@H](c3ccc(C#CC4CC4)cc3)[C@H]2C1 | 1 | 1
O=C(C[C@@H]1CC[C@@H]2[C@H](COC[C@H](O)CN2C(=O)c2ccc3c(c2)OCO3)O1)NC1CCCC1 | 8 | 5
COCC(=O)Nc1ccc2c(c1)C(=O)N(C)C[C@H](OC)[C@H](C)CN(Cc1ccccc1OC)[C@H](C)CO2 | 1 | 2
CCS(=O)(=O)N1CC(=O)N2[C@H](CO)[C@@H](c3ccc(-c4ccc(C)cc4)cc3)[C@H]2C1 | 3 | -23
COc1ccccc1-c1cnc2c(c1)C(=O)N([C@H](C)CO)C[C@@H](C)[C@@H](CN(C)C(=O)CC1CC1)O2 | 2 | 5
COc1ccc(NC(=O)Nc2ccc3c(c2)CC(=O)N([C@@H](C)CO)C[C@H](C)[C@@H](CN(C)Cc2ccc(C(=O)Nc4ccccc4N)cc2)O3)cc1 | 13 | 14
COc1ccc2c3c(n(C)c2c1)[C@@H](CO)NCC31CN(C(=O)CC2CC2)C1 | 4 | -2
